# High-throughput results from PubChem.
# UUG fidelity: yeast start codon fidelity modulation; AID 602363; S. cerevisiae UUG-firefly luciferase reporter, luminescence/redox ratio; 0.13% of 350,000 active; activity score, % at 18.7 µM;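 active = replicate mean at a twofold rise or more, about +100% in these data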;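 also: firefly luciferase made from a UUG start codon reports start codon fidelity; reporter light over untreated wells divided by growth signal over untreated wells; some hits fall short of that in this replicate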
# Env fusion inh: HIV envelope-mediated fusion inhibition; HeLa-JRFL Env/CEM21 cell fusion, luciferase; inhibition, % at 12.3 µM; 1.1% of 360,000 active; AID 651610;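 active = mean replicate inhibition score of at least 50 and every replicate individually at or above 50; inconclusive = only one of the two criteria met; inactive = mean below 50 and not all replicates reaching 50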;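 also: 0% = plate neutral controls and 100% = maraviroc near 300 nM; one replicate is shown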
# * = called active by the depositor; ? = inconclusive; [ ] = remark or other dose.
SMILES,UUG fidelity,Env fusion inh
O=C(C[C@H]1C[C@H]2c3cc(NC(=O)Nc4ccc(F)cc4)ccc3O[C@H]2[C@@H](CO)O1)NC1CCCC1,-3.5,-17.5[16.7 µM]
Cc1ccc(-c2ccc3c(c2)O[C@H](CN(C)Cc2ccncc2)[C@@H](C)CN([C@H](C)CO)S3(=O)=O)cc1,0.4,39.3[16.7 µM]
C[C@@H]1CN([C@@H](C)CO)C(=O)c2cc(NC(=O)Nc3ccc4c(c3)OCO4)ccc2O[C@H]1CN(C)S(=O)(=O)c1ccc(Cl)cc1,-1.1,-1.7[16.7 µM]
CCCNC(=O)N[C@H]1CC[C@@H](CCn2cc(C3CCCCC3)nn2)O[C@@H]1CO,-9.8,11.6[16.7 µM]
COc1ccc(S(=O)(=O)Nc2cccc3c2O[C@@H](CN(C)Cc2ccc(Cl)c(Cl)c2)[C@@H](C)CN([C@@H](C)CO)C3=O)cc1,-4.4,-15.6[16.7 µM]
O=C(Cc1ccccc1)N[C@@H]1C=C[C@H](CC(=O)N2CCOCC2)O[C@H]1CO,-2.5,9.9[16.7 µM]
Cc1noc(C)c1NC(=O)Nc1ccc2c(c1)C(=O)N([C@@H](C)CO)C[C@H](C)[C@@H](CN(C)C(=O)C1CCCCC1)OCCCC[C@H](C)O2,10.0,12.7[16.7 µM]
COc1ccc(NC(=O)Nc2ccc3c(c2)CC(=O)N([C@@H](C)CO)C[C@@H](C)[C@@H](CN(C)Cc2ccc(C(=O)O)cc2)O3)cc1,6.7,-2.0[16.7 µM]
C[C@@H]1CN([C@H](C)CO)C(=O)c2cc(-c3ccc(F)cc3)cnc2O[C@@H]1CN(C)C(=O)Nc1ccccc1F,8.6,5.5[16.7 µM]
C[C@H](O)C#Cc1ccc2c(c1)O[C@H](CN(C)Cc1cncnc1)[C@H](C)CN([C@H](C)CO)S2(=O)=O,-7.4,-10.0[16.7 µM]
CCC(=O)Nc1ccc2c(c1)OC[C@@H](C)N(Cc1ccccc1C(=O)O)C[C@@H](C)[C@H](OC)CN(C)C2=O,-0.4,-7.5[16.7 µM]
CC(C)CC#Cc1ccc2c(c1)O[C@H](CN(C)C(=O)NC1CCCC1)[C@H](C)CN([C@H](C)CO)S2(=O)=O,53.0,-11.3[16.7 µM]
C[C@H](O)C#Cc1ccc2c(c1)O[C@@H](CN(C)Cc1ccccn1)[C@@H](C)CN([C@H](C)CO)S2(=O)=O,-27.2,-18.2[16.7 µM]
CCCNC(=O)N(C)C[C@H]1Oc2ncc(C#CC3CC3)cc2C(=O)N([C@H](C)CO)C[C@H]1C,-4.7,11.4[16.7 µM]
C[C@H]1CN([C@@H](C)CO)C(=O)c2cc(NS(C)(=O)=O)ccc2O[C@@H]1CN(C)Cc1ccc(C(F)(F)F)cc1,-11.4,16.1[16.7 µM]
C[C@@H]1CCCCO[C@@H](CN(C)CC2CCCCC2)[C@@H](C)CN([C@@H](C)CO)C(=O)c2cc(NC(=O)c3ccccc3)ccc2O1,17.1,-10.7[16.7 µM]
Cc1noc(C)c1NC(=O)N(C)C[C@H]1Oc2ccc(NS(=O)(=O)c3cn(C)cn3)cc2CC(=O)N([C@H](C)CO)C[C@H]1C,-10.5,-9.5[16.7 µM]
COc1ccc(NC(=O)N[C@@H]2CC[C@H](CCn3cc(-c4ccccn4)nn3)O[C@H]2CO)cc1,-21.4,-9.0[16.7 µM]
COc1ccc(NC(=O)Nc2cccc3c2O[C@H](CN(C)S(=O)(=O)c2cccs2)[C@@H](C)CN([C@@H](C)CO)C3=O)cc1,4.1,10.5[16.7 µM]
C[C@H](NC(=O)C[C@@H]1C=C[C@@H](NC(=O)c2cccnc2)[C@@H](CO)O1)c1ccccc1,-16.1,-15.5[16.7 µM]
CC(=O)N(C)C[C@@H]1Oc2cc(-c3ccc(C)cc3)ccc2S(=O)(=O)N([C@@H](C)CO)C[C@H]1C,7.3,8.4[16.7 µM]
C[C@@H]1CCCCO[C@@H](CN(C)S(=O)(=O)c2cccs2)[C@@H](C)CN([C@H](C)CO)C(=O)c2cc(NC(=O)CCCCCC(=O)Nc3ccccc3N)ccc2O1,-18.6,18.3[16.7 µM]
CCCNC(=O)C[C@@H]1CC[C@@H]2[C@H](COc3ccc(NC(=O)c4ccccc4)cc3C(=O)N2C)O1,11.4,22.6[16.7 µM]
C[C@@H]1CN([C@H](C)CO)C(=O)c2cc(NC(=O)NC3CCCCC3)ccc2O[C@@H]1CN(C)Cc1ccc2c(c1)OCO2,-4.9,-14.2[16.7 µM]
Cc1noc(C)c1S(=O)(=O)Nc1ccc2c(c1)C(=O)N([C@H](C)CO)C[C@@H](C)[C@@H](CN(C)Cc1ccc(-c3ccccc3)cc1)O2,3.5,9.4[16.7 µM]
# Next records:
SMILES,UUG fidelity,Env fusion inh
C[C@@H]1CN([C@H](C)CO)C(=O)Cc2cc(NS(=O)(=O)c3cn(C)cn3)ccc2O[C@H]1CN(C)C(=O)NC1CCCCC1,-12.7,-8.9[16.7 µM]
COc1ccc(S(=O)(=O)N(C)C[C@H]2Oc3c(NC(=O)Nc4cccc5ccccc45)cccc3C(=O)N([C@H](C)CO)C[C@H]2C)cc1,6.2,0.1[16.7 µM]
C[C@H]1CN([C@@H](C)CO)C(=O)c2cc(C#Cc3ccccc3)cnc2O[C@@H]1CN(C)C(=O)c1ccccc1F,2.6,6.5[16.7 µM]
Cc1noc(C)c1S(=O)(=O)Nc1ccc2c(c1)CC(=O)N([C@H](C)CO)C[C@@H](C)[C@H](CN(C)Cc1ccc(Oc3ccccc3)cc1)O2,1.5,?
C[C@H]1CN([C@@H](C)CO)C(=O)c2cccc(NS(=O)(=O)c3ccc(Cl)cc3)c2O[C@H]1CN(C)Cc1ccc(C(=O)Nc2ccccc2N)cc1,12.1,-6.6[16.7 µM]
Cc1noc(C)c1NC(=O)Nc1ccc2c(c1)C(=O)N([C@@H](C)CO)C[C@@H](C)[C@H](CN(C)C(=O)Nc1c(C)noc1C)O2,12.2,-19.3[16.7 µM]
CC(C)NC(=O)N[C@H]1CC[C@@H](CCn2cc(-c3ccccc3)nn2)O[C@@H]1CO,2.1,-27.9[16.7 µM]
C[C@H](CO)N1C[C@H](C)[C@@H](CN(C)Cc2ccc(C(F)(F)F)cc2)Oc2ccc(N(C)C)cc2CC1=O,-5.5,?
O=C(C[C@H]1C=C[C@@H](NC(=O)C2CC2)[C@@H](CO)O1)NCc1ccncc1,-3.4,15.9[16.7 µM]
O=C(C[C@@H]1C[C@@H]2c3cc(NC(=O)Nc4ccc(C(F)(F)F)cc4)ccc3O[C@@H]2[C@H](CO)O1)NCC1CC1,-14.6,8.7[16.7 µM]
COc1ccc(S(=O)(=O)Nc2cccc3c2O[C@@H](CN(C)S(=O)(=O)c2cccs2)[C@H](C)CN([C@H](C)CO)C3=O)cc1,-4.2,-22.5[16.7 µM]
COc1ccccc1C(=O)Nc1ccc2c(c1)OC[C@@H](C)N(C)C[C@H](C)[C@@H](OC)CN(C)C2=O,-7.5,2.8[16.7 µM]
C[C@H]1CN([C@@H](C)CO)C(=O)Cc2cc(NC(=O)CCCCCC(=O)Nc3ccccc3N)ccc2O[C@H]1CN(C)C(=O)Nc1ccc2c(c1)OCO2,8.4,?
COCC(=O)Nc1ccc2c(c1)C(=O)N(C)[C@H]1CC[C@H](CC(=O)NCCc3ccccc3)O[C@@H]1CO2,5.1,0.7[16.7 µM]
Cc1ccc(S(=O)(=O)N(C)C[C@H]2OCCCC[C@H](C)Oc3ccc(NS(=O)(=O)c4ccc(Cl)cc4)cc3C(=O)N([C@H](C)CO)C[C@@H]2C)cc1,3.3,16.3[16.7 µM]
C[C@H](CO)N1C[C@H](C)[C@@H](CN(C)Cc2ccc(Cl)c(Cl)c2)OCCCC[C@H](C)Oc2ccc(NS(=O)(=O)c3cn(C)cn3)cc2C1=O,1.4,10.9[16.7 µM]
COCC(=O)N(C)C[C@@H]1Oc2cc(C#CCN(C)C)ccc2S(=O)(=O)N([C@@H](C)CO)C[C@@H]1C,11.6,-46.7[16.7 µM]
COc1cccc(C#Cc2ccc3c(c2)O[C@H](CN(C)C(C)=O)[C@@H](C)CN([C@H](C)CO)S3(=O)=O)c1,-10.2,-3.4[16.7 µM]
C[C@@H]1CN([C@@H](C)CO)C(=O)Cc2cc(NS(=O)(=O)c3cccs3)ccc2O[C@H]1CN(C)C(=O)Nc1ccc(F)cc1,10.6,-6.1[16.7 µM]
C[C@H](CO)N1C[C@H](C)[C@H](CN(C)Cc2ccc(C(F)(F)F)cc2)Oc2ccc(NC(=O)Nc3ccc4c(c3)OCO4)cc2C1=O,-1.4,9.5[16.7 µM]
CN1CCN(C(=O)C[C@@H]2CC[C@@H]3[C@H](COC[C@H](O)CN3CC3CCOCC3)O2)CC1,-12.0,-5.2[16.7 µM]
C[C@@H]1CN([C@@H](C)CO)C(=O)Cc2cc(NC(=O)Nc3ccccc3)ccc2O[C@H]1CN(C)S(=O)(=O)c1cn(C)cn1,-3.2,-79.6[16.7 µM]
O=C(C[C@H]1CC[C@H](NS(=O)(=O)c2ccc(F)cc2)[C@H](CO)O1)N1CCC(Cc2ccccc2)CC1,-21.1,19.6[16.7 µM]
C[C@H]1CN([C@@H](C)CO)C(=O)c2cc(NC(=O)Nc3ccccc3)ccc2O[C@H]1CN(C)Cc1ccc(C(=O)Nc2ccccc2N)cc1,5.6,-10.9[16.7 µM]
C[C@@H]1CN([C@@H](C)CO)S(=O)(=O)c2ccc(C3=CCCC3)cc2O[C@H]1CN(C)Cc1ccncc1,1.2,24.7[16.7 µM]

# The closing 6 entries of the section before come first, to join the parts.
SMILES,UUG fidelity,Env fusion inh
C[C@H](CO)N1C[C@H](C)[C@H](CN(C)Cc2ccc(C(F)(F)F)cc2)Oc2ccc(NC(=O)Nc3ccc4c(c3)OCO4)cc2C1=O,-1.4,9.5[16.7 µM]
CN1CCN(C(=O)C[C@@H]2CC[C@@H]3[C@H](COC[C@H](O)CN3CC3CCOCC3)O2)CC1,-12.0,-5.2[16.7 µM]
C[C@@H]1CN([C@@H](C)CO)C(=O)Cc2cc(NC(=O)Nc3ccccc3)ccc2O[C@H]1CN(C)S(=O)(=O)c1cn(C)cn1,-3.2,-79.6[16.7 µM]
O=C(C[C@H]1CC[C@H](NS(=O)(=O)c2ccc(F)cc2)[C@H](CO)O1)N1CCC(Cc2ccccc2)CC1,-21.1,19.6[16.7 µM]
C[C@H]1CN([C@@H](C)CO)C(=O)c2cc(NC(=O)Nc3ccccc3)ccc2O[C@H]1CN(C)Cc1ccc(C(=O)Nc2ccccc2N)cc1,5.6,-10.9[16.7 µM]
C[C@@H]1CN([C@@H](C)CO)S(=O)(=O)c2ccc(C3=CCCC3)cc2O[C@H]1CN(C)Cc1ccncc1,1.2,24.7[16.7 µM]
C[C@@H]1CCCCO[C@@H](CN(C)C(=O)Nc2cccc3ccccc23)[C@@H](C)CN([C@H](C)CO)C(=O)c2cc(NS(C)(=O)=O)ccc2O1,-7.1,1.7[16.7 µM]
C[C@H](CO)N1C[C@H](C)[C@@H](CN(C)Cc2cccc(F)c2)Oc2cc(-c3ccc(C#N)cc3)ccc2S1(=O)=O,2.9,16.8[16.7 µM]
CCCC#Cc1cnc2c(c1)C(=O)N([C@@H](C)CO)C[C@H](C)[C@H](CN(C)C(=O)Nc1cccc(F)c1)O2,28.2,24.1[16.7 µM]
C/C=C/c1cnc2c(c1)C(=O)N([C@@H](C)CO)C[C@H](C)[C@H](CN(C)Cc1ccccc1)O2,0.0,7.7[16.7 µM]
C[C@H](CO)N1C[C@H](C)[C@@H](CN(C)S(=O)(=O)c2cccs2)OCCCC[C@H](C)Oc2ccc(NC(=O)Nc3ccc4c(c3)OCO4)cc2C1=O,-14.4,-77.1[16.7 µM]
C[C@@H]1CN([C@H](C)CO)C(=O)c2cc(-c3cccc(F)c3)cnc2O[C@H]1CN(C)Cc1ccncc1,4.7,3.1[16.7 µM]
CCCN1C[C@H](C)[C@@H](OC)CN(C)C(=O)c2cc(NC(=O)c3ccccc3)ccc2OC[C@H]1C,-8.9,4.6[16.7 µM]
C[C@H]1CN([C@@H](C)CO)S(=O)(=O)c2ccc(C#CC3CC3)cc2O[C@@H]1CN(C)C,-3.5,18.9[16.7 µM]
C[C@H]1CN([C@@H](C)CO)S(=O)(=O)c2ccc(C#CC3CCCCC3)cc2O[C@@H]1CN(C)C,47.3,6.0[16.7 µM]
CC(C)C(=O)Nc1ccc2c(c1)C(=O)N(C)[C@H]1CC[C@@H](CC(=O)NCc3ccc(F)cc3)O[C@H]1CO2,-4.8,-10.2[16.7 µM]
C[C@@H]1CN([C@H](C)CO)S(=O)(=O)c2ccc(C#CC3CC3)cc2O[C@H]1CN(C)S(C)(=O)=O,4.2,12.0[16.7 µM]
CO[C@@H]1CN(C)C(=O)c2ccc(NC(=O)Cc3ccccc3)cc2OC[C@@H](C)NC[C@@H]1C,-7.4,-4.7[16.7 µM]
C[C@H]1CN([C@@H](C)CO)S(=O)(=O)c2ccc(-c3ccc(F)cc3)cc2O[C@H]1CN(C)C(=O)Nc1ccccc1F,9.8,-37.9[16.7 µM]
COc1ccc(CN(C)C[C@@H]2OCCCC[C@@H](C)Oc3ccc(NC(=O)NC4CCCCC4)cc3C(=O)N([C@@H](C)CO)C[C@H]2C)cc1,21.7,-1.0[16.7 µM]
CNC[C@H]1Oc2ccc(NS(=O)(=O)c3ccc(F)cc3)cc2C(=O)N([C@@H](C)CO)C[C@@H]1C,3.3,-2.2[16.7 µM]
Cc1cccc(S(=O)(=O)N[C@H]2CC[C@H](CCn3cc(-c4ccccn4)nn3)O[C@@H]2CO)c1,4.2,-35.8[16.7 µM]
C[C@H]1CN([C@@H](C)CO)C(=O)c2cccc(NC(=O)C3CC3)c2O[C@@H]1CN(C)C(=O)Nc1ccc(C(F)(F)F)cc1,6.8,-2.4[16.7 µM]

# Only part of the results is shown. The share of hits here may be higher or lower than overall.
